Vaccinia inh: blocks a specific stage of Vaccinia orthopoxvirus infection, primary screen, cell-based, single point; AID 1053133, 2014; Vaccinia-infected cells, mCherry/Venus stage reporter fluorescence; stronger effect = lower value; some inactives read as strong as hits; 89,000 tested, 0.01% active; activity change (mCherry), % (concentration not given with the values);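 active = mCherry past -33% and 40 or more points under the early reporter, replicates agreeing; inconclusive = past -33% without that gap or agreement; tested in A549 cells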;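 note: scaled between vehicle wells and reference inhibitor wells; 23 nL library stock went into each well; one replicate is shown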
Vaccinia inh Venus: further read-out of Vaccinia inh, marked with its call; activity change (Venus), %; measured here: Venus reporter, other viral stage;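 negative = less Venus signal; first of two replicates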
The depositor's hits bear a star; u = inconclusive; x = no result given; & = joins results of further samples. An excerpt. The share of hits here may be higher or lower than overall.

SMILES | Vaccinia inh | Vaccinia inh Venus
C/C=C/c1ccc(C2[C@H]3CNC[C@@H]2N3Cc2cc(OC)cc(OC)c2)cc1 (stereo partly drawn) | -24&1 | -5&-4
O=C(C[C@@H]1CC[C@@H]2[C@H](COC[C@@H](O)CN2C(=O)c2ccc3c(c2)OCO3)O1)NC1CCCC1 | 9 | 8
Cc1ccc(S(=O)(=O)Nc2cccc3c2O[C@@H](CN(C)C(=O)Nc2c(C)noc2C)[C@H](C)CN([C@@H](C)CO)C3=O)cc1 | 3 | 8
C[C@H]1CN([C@@H](C)CO)C(=O)Cc2cc(NS(=O)(=O)c3ccccc3)ccc2O[C@H]1CN(C)S(=O)(=O)c1cn(C)cn1 | 0 | 3
C[C@@H]1CN([C@@H](C)CO)C(=O)c2cc(NS(=O)(=O)c3ccc(Cl)cc3)ccc2O[C@@H](C)CCCCO[C@@H]1CN(C)C | -1 | -2
C[C@H](CO)N1C[C@H](C)[C@@H](CN(C)C(=O)c2ccccn2)Oc2ncc(-c3ccccc3F)cc2C1=O | 10 | 9
Cc1noc(C)c1NC(=O)N[C@H]1CC[C@@H](CC(=O)N2CCN(C)CC2)O[C@H]1CO | -2 | -5
O=C(O)C[C@@H]1C=C[C@@H](NC(=O)Nc2ccccc2)[C@H](CO)O1 | 6 | 13
O=C(NC[C@H]1[C@H](c2ccccc2)[C@@H](CO)N1Cc1ccccn1)C1CCCC1 | 10 | 16
Cc1noc(C)c1NC(=O)N1C[C@@H](O)COC[C@@H]2O[C@H](CC(=O)NCC3CCCCC3)CC[C@H]21 | 13 | 17
C[C@@H]1CCCCO[C@H](CN(C)C(=O)NC2CCCCC2)[C@@H](C)CN([C@H](C)CO)C(=O)c2cc(NC(=O)CCC(F)(F)F)ccc2O1 | 1 | 0
C[C@@H](O)C#Cc1ccc([C@H]2[C@H](CO)N3CCCCN(S(=O)(=O)c4ccccc4)C[C@@H]23)cc1 | 15 | 8
C[C@@H]1CN([C@@H](C)CO)C(=O)c2cc(-c3ccccc3F)cnc2O[C@@H]1CN(C)C(=O)C1CCC1 | 0 | 10
O=C(C[C@@H]1C[C@H]2c3cc(NC(=O)C4CCOCC4)ccc3O[C@H]2[C@H](CO)O1)NCc1ccccc1 | 8 | 7
COc1ccc(C#Cc2ccc([C@@H]3[C@H](CO)N4CCCCN(C)C[C@@H]34)cc2)cc1 | u | x
C[C@H]1CCCCO[C@H](CN(C)CC2CC2)[C@@H](C)CN([C@@H](C)CO)C(=O)c2cc(NC(=O)c3ccncc3)ccc2O1 | 4 | 6
C[C@H]1CN([C@@H](C)CO)C(=O)c2cccc(NC(=O)CCCCCC(=O)Nc3ccccc3N)c2O[C@H]1CN(C)C(=O)NC1CCCCC1 | 15 | 10
COc1cccc(-c2ccc3c(c2)O[C@H](CN(C)C(=O)C2CCCCC2)[C@@H](C)CN([C@H](C)CO)S3(=O)=O)c1 | u | x
CC(=O)N1[C@H](CN(C(=O)c2cccc(F)c2)C(C)C)[C@H](c2ccccc2)[C@@H]1CO | 9 | 4
CO[C@H]1CN(C)C(=O)c2ccc(NS(C)(=O)=O)cc2OC[C@H](C)N(Cc2ccccn2)C[C@@H]1C | 2 | 1
Cc1ccc(S(=O)(=O)N(C)C[C@@H]2Oc3c(NC(=O)Nc4c(C)noc4C)cccc3C(=O)N([C@H](C)CO)C[C@H]2C)cc1 | 5 | 5
CC(C)NC(=O)N(C)C[C@@H]1Oc2ccc(NC(=O)C3CCCCC3)cc2CC(=O)N([C@H](C)CO)C[C@H]1C | 25 | 20
C[C@H]1CN([C@@H](C)CO)C(=O)Cc2cc(NC(=O)Cn3cnnn3)ccc2O[C@@H]1CN(C)CC1CC1 | 16 | 15
COc1ccccc1NC(=O)N[C@H]1C=C[C@@H](CC(=O)N2CCC(Cc3ccccc3)CC2)O[C@@H]1CO | -30 | -14
CC(C)C#Cc1ccc([C@H]2[C@H](CO)N3CCCCN(C(=O)NC(C)C)C[C@@H]23)cc1 | -9 | -3

Four of these compounds, reformatted.
structure: C[C@H]1CN([C@@H](C)CO)C(=O)Cc2cc(NC(=O)Cn3cnnn3)ccc2O[C@@H]1CN(C)CC1CC1
  Vaccinia inh = 16
  Vaccinia inh Venus = 15
structure: C[C@H]1CN([C@@H](C)CO)C(=O)Cc2cc(NS(=O)(=O)c3ccccc3)ccc2O[C@H]1CN(C)S(=O)(=O)c1cn(C)cn1
  Vaccinia inh = 0
  Vaccinia inh Venus = 3
structure: C[C@H](CO)N1C[C@H](C)[C@@H](CN(C)C(=O)c2ccccn2)Oc2ncc(-c3ccccc3F)cc2C1=O
  Vaccinia inh = 10
  Vaccinia inh Venus = 9
structure: Cc1noc(C)c1NC(=O)N1C[C@@H](O)COC[C@@H]2O[C@H](CC(=O)NCC3CCCCC3)CC[C@H]21
  Vaccinia inh = 13
  Vaccinia inh Venus = 17

The listing picks up, starting two compounds before the break.
SMILES | Vaccinia inh | Vaccinia inh Venus
COc1ccccc1NC(=O)N[C@H]1C=C[C@@H](CC(=O)N2CCC(Cc3ccccc3)CC2)O[C@@H]1CO | -30 | -14
CC(C)C#Cc1ccc([C@H]2[C@H](CO)N3CCCCN(C(=O)NC(C)C)C[C@@H]23)cc1 | -9 | -3
C[C@H](CO)N1C[C@H](C)[C@@H](CN(C)CC2CCCCC2)Oc2ccc(NC(=O)NC3CCCCC3)cc2C1=O | -18 | -15
COCC(=O)N1[C@@H]2c3cccc(=O)n3C[C@@H]2[C@@H](CO)[C@@H]1C(=O)NCc1ccccc1 | -9 | 0
CC(=O)N1[C@@H]2Cn3c(ccc(C4=CCCC4)c3=O)[C@H]1[C@@H](C(=O)NC1CCCCC1)[C@@H]2CO | 5 | 0
COc1cccc(-c2ccc([C@H]3[C@H](CO)N4CCCCN(C(=O)c5ccc(F)cc5)C[C@@H]34)cc2)c1 | -14 | -8
C[C@H](NC(=O)[C@H]1N[C@H]2c3ccc(-c4ccc(C(=O)N(C)C)cc4)c(=O)n3C[C@H]2[C@@H]1CO)c1ccccc1 | 6 | 7
COc1ccc(S(=O)(=O)Nc2cccc3c2O[C@H](CN(C)Cc2ccc(C(=O)O)cc2)[C@@H](C)CN([C@H](C)CO)C3=O)cc1 | 26 | 24
C[C@@H]1CN([C@@H](C)CO)C(=O)Cc2cc(NS(C)(=O)=O)ccc2O[C@@H]1CN(C)C(=O)Nc1cccc2ccccc12 | 31 | 12
C[C@@H]1CN([C@@H](C)CO)C(=O)c2cc(NC(=O)Cn3cnnn3)ccc2O[C@H]1CN(C)Cc1ccc(Cl)c(Cl)c1 | -1 | 1
O=C(C[C@H]1CC[C@@H](NC(=O)C2CCC2)[C@H](CO)O1)NC1CCCCC1 | 11 | 11
C[C@H]1CN([C@@H](C)CO)C(=O)Cc2cc(NC(=O)NC3CCCCC3)ccc2O[C@@H]1CN(C)Cc1ccc(Cl)c(Cl)c1 | -16 | 4
Cc1noc(C)c1NC(=O)N(C)C[C@@H]1Oc2ccc(NC(=O)c3ccncc3)cc2C(=O)N([C@H](C)CO)C[C@H]1C | 9 | 0
CNC[C@@H]1OCCCC[C@H](C)Oc2ccc(NS(=O)(=O)c3ccc(OC)cc3)cc2C(=O)N([C@@H](C)CO)C[C@@H]1C | 4 | 13
CC(=O)NC[C@H]1[C@@H](c2ccc(C#C[C@H](C)O)cc2)[C@@H](CO)N1Cc1ccccn1 | 8 | 10
Cc1noc(C)c1NC(=O)N(C)C[C@@H]1Oc2ccc(NS(=O)(=O)c3ccc(F)cc3)cc2C(=O)N([C@H](C)CO)C[C@@H]1C | 19 | 14
CC(C)NC(=O)N(C)C[C@H]1Oc2cc(-c3cncnc3)ccc2S(=O)(=O)N([C@@H](C)CO)C[C@H]1C | 25 | 12
C[C@H]1CN([C@@H](C)CO)C(=O)Cc2cc(NC(=O)CCCCCC(=O)Nc3ccccc3N)ccc2O[C@@H]1CN(C)C(=O)Nc1cccc2ccccc12 | 9 | 8
C[C@@H]1CN([C@H](C)CO)C(=O)CCCn2cc(nn2)CO[C@H]1CN(C)Cc1ccc(C(=O)Nc2ccccc2N)cc1 | 9 | 2
CC(C)c1cn(CC[C@H]2CC[C@@H](NC(=O)C3CCC3)[C@H](CO)O2)nn1 | 6 | 3
C[C@@H]1CN([C@H](C)CO)C(=O)c2cccc(NC(=O)C3CC3)c2O[C@H]1CN(C)S(=O)(=O)c1cn(C)cn1 | 9 | 10
C[C@@H]1CN([C@@H](C)CO)C(=O)c2cccc(N(C)C)c2O[C@@H]1CN(C)C(=O)NC1CCCCC1 | 0 | -5
COc1ccccc1-c1ccc(C2[C@H]3CNC[C@@H]2N3S(=O)(=O)c2ccc(C)cc2)cc1 (stereo partly drawn) | 15&15 | 12&11
C[C@H](CO)N1C[C@H](C)[C@@H](CN(C)C)Oc2cc(C#CC3CCCC3)ccc2S1(=O)=O | u | x
Cc1ccccc1-c1ccc(C2[C@@H]3CN(Cc4cccnc4)C[C@H]2N3)cc1 (stereo partly drawn) | u | -22
C[C@H](CO)N1C[C@H](C)[C@@H](CN(C)C(=O)Cc2ccncc2)Oc2cc(C#CC3CCCCC3)ccc2S1(=O)=O | -19 | -23
O=C(C[C@H]1C=C[C@H](NC(=O)NC2CCCCC2)[C@H](CO)O1)NCc1ccccc1 | 3 | 5

(next part)
SMILES | Vaccinia inh | Vaccinia inh Venus
C[C@@H]1CN([C@@H](C)CO)C(=O)c2cccc(NC(=O)NC3CCCCC3)c2O[C@@H]1CN(C)C(=O)Nc1cccc2ccccc12 | -22 | -5
C[C@@H]1CN([C@@H](C)CO)C(=O)Cc2cc(NS(=O)(=O)c3cn(C)cn3)ccc2O[C@@H]1CN(C)Cc1ccccc1 | -5 | -2
Cc1ccc(S(=O)(=O)N(C)C[C@@H]2Oc3ccc(NC(=O)NC4CCCCC4)cc3CC(=O)N([C@H](C)CO)C[C@H]2C)cc1 | 15 | 5
O=C(C[C@H]1C=C[C@H](NC(=O)Cc2cccnc2)[C@H](CO)O1)Nc1ccccc1 | 5 | 5
Cc1ccc(S(=O)(=O)N(C)C[C@@H]2Oc3c(NC(=O)c4cnccn4)cccc3C(=O)N([C@@H](C)CO)C[C@H]2C)cc1 | 14 | 11
CCCNC(=O)Nc1ccc2c(c1)C(=O)N(C)C[C@@H](OC)[C@H](C)CN(Cc1cccnc1)[C@H](C)CO2 | 4 | 2
O=C(CN1CCOCC1)N[C@H]1CC[C@@H](CCNC(=O)Nc2cc(F)ccc2F)O[C@@H]1CO | -2 | 0
O=C(N[C@H]1CC[C@H](CCNS(=O)(=O)c2ccc(Cl)cc2)O[C@@H]1CO)c1cnccn1 | -2 | -2
OC[C@@H]1[C@H](c2ccc(Br)cc2)[C@@H]2CN(Cc3cncnc3)CCCCN12 | 25 | 14
COc1ccccc1-c1ccc([C@H]2[C@H](C#N)N(C(=O)C3CC3)[C@H]2CO)cc1 | -2 | -3
COc1cccc(S(=O)(=O)Nc2ccc3c(c2)C(=O)N(C)C[C@@H](OC)[C@H](C)CN(Cc2ccccc2F)[C@H](C)CO3)c1 | -26 | -20
Cc1noc(C)c1NC(=O)N(C)C[C@@H]1Oc2ccc(NS(=O)(=O)c3ccc(Cl)cc3)cc2C(=O)N([C@H](C)CO)C[C@@H]1C | 30 | 6
COc1ccc(CN(C)C[C@H]2Oc3ccc(NC(=O)Nc4c(C)noc4C)cc3CC(=O)N([C@H](C)CO)C[C@H]2C)cc1 | 19 | 10
CC(C)NC(=O)N(C)C[C@H]1Oc2ccc(NS(=O)(=O)c3ccc(F)cc3)cc2CC(=O)N([C@H](C)CO)C[C@H]1C | -1 | -3
C[C@@H]1CCCCO[C@H](CN(C)Cc2ccccc2)[C@@H](C)CN([C@H](C)CO)C(=O)c2cc(NS(=O)(=O)c3cn(C)cn3)ccc2O1 | 47 | 19
COc1ccc2c3c(n(C)c2c1)[C@H](CO)N(CC1CCCCC1)CC31CCN(C(C)=O)CC1 | 14 | 7
CCNC(=O)C[C@@H]1CC[C@@H]2[C@H](COC[C@H](O)CN2C(=O)CC)O1 | 9 | 8
C[C@@H]1CN([C@H](C)CO)C(=O)Cc2cc(NC(=O)c3ccncc3)ccc2O[C@@H]1CN(C)C(=O)Nc1cccc2ccccc12 | 22 | 15
C[C@@H]1CN([C@H](C)CO)C(=O)c2cc(NS(C)(=O)=O)ccc2O[C@@H]1CN(C)Cc1ccccc1 | 3 | 3
C[C@@H]1CCCCO[C@@H](CN(C)S(=O)(=O)c2ccccc2)[C@@H](C)CN([C@@H](C)CO)C(=O)c2cc(NC(=O)CCC(F)(F)F)ccc2O1 | 23 | 7
O=C(C[C@@H]1CC[C@H]2[C@@H](COC[C@H](O)CN2Cc2nccs2)O1)NCc1ccccc1 | 3 | 9
O=C(C[C@@H]1CC[C@@H]2[C@H](COC[C@H](O)CN2C(=O)Nc2ccc(Cl)c(Cl)c2)O1)NC1CCC1 | -8 | 1
C[C@@H]1CCCCO[C@H](CN(C)Cc2ccc(C(=O)O)cc2)[C@@H](C)CN([C@H](C)CO)C(=O)c2cc(NC(=O)CCC(F)(F)F)ccc2O1 | 17 | 11
CCCNC(=O)N(C)C[C@H]1Oc2ncc(C#CCc3ccccc3)cc2C(=O)N([C@@H](C)CO)C[C@@H]1C | 7 | 2
Cc1ccc(-c2ccc([C@H]3[C@H]4CN(C(=O)Nc5ccc(F)cc5)CC(=O)N4[C@H]3CO)cc2)cc1 | u | x
O=C(C[C@H]1CC[C@H]2[C@@H](COC[C@@H](O)CN2S(=O)(=O)c2cccc(Cl)c2)O1)NC1Cc2ccccc2C1 | -11 | -6
CO[C@H](CN(C)C(=O)c1cnccn1)[C@H](C)CN([C@H](C)CO)S(=O)(=O)c1ccc(C)cc1 | 16 | 6

From PubChem
